D2 ag = human D2 receptor agonism in beta-arrestin assay. DiscoveRx PathHunter D2 beta-arrestin, luminescence, 90 min; 100% = 57 uM dopamine signal. activation, % (test concentration not listed). AID 624465. P14416. 360,000 compounds, 0.084% hits; in the data active = activation above about 40%; inconclusive = about 15% to 40%; inactive = below about 15%; note: compound concentration not given in the record; the text of the record calls up to 30% inactive
Target sequence (P14416 whole entry, looked up): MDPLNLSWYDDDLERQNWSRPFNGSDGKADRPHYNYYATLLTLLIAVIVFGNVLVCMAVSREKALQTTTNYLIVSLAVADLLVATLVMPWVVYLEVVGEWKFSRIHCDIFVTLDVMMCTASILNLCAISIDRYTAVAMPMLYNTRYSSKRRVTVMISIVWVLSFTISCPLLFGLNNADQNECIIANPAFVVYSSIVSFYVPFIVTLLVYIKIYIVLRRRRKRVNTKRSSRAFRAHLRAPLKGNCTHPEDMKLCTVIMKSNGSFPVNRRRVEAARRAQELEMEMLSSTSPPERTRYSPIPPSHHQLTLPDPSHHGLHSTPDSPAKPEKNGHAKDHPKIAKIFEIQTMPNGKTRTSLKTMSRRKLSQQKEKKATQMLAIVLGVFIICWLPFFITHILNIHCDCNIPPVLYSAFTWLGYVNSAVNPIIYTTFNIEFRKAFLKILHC
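Agonist mode: compounds alone added to overnight-plated D2 PathHunter cells for 90 min at 37 C, with 57 uM final dopamine (EC100) defining full response. Beta-arrestin recruitment detected by chemiluminescent reagent, read after 1 h at ambient temperature.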
CtBP-E1A inh = inhibitors of CtBP/E1A interaction; AID 651724; AlphaScreen GST-E1A/His-CtBP binding, 1536-well; stronger effect = lower value; control for the full effect not named in the record; activity change, % (no concentration beside the values); 340,000 compounds, 0.49% hits; in the data active means activity change below about -65%; inconclusive means about -30% to -65%; inactive means above about -30%; note: % is set by controls: 0 for no effect and ±100 for the full control effect
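Steps: dispense buffer (Tris pH 8.0, NaCl 300 mM, TCEP 1 mM, BSA, Tween 20); add 5X protein mix (GST-E1A, His-CtBP, 125 nM each); pin 23 nL compound; 2 h at 37 °C, dark; add 5X beads (50 ug/mL); 1 h; read.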
D2 potentiator = positive allosteric modulators of human D2 dopamine receptor; P14416; DiscoveRx D2 beta-arrestin cells, luminescence, 90 min; 100% = 57 uM dopamine signal; potentiation, % (concentration not given with the values); 360,000 compounds, 0.23% hits; AID 624464; active = potentiation of 50% or more; inconclusive = 30% to 50%; inactive = 30% or less;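 note: tested on top of an EC20 dose of dopamine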
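PathHunter beta-arrestin assay in DiscoveRx D2 cells. Compounds were added with an EC20 of dopamine (50 nM final) for 90 min at 37 deg C. Luminescence was read 1 h after detection reagent, with 57 uM dopamine as the EC100 control.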
Sfp inh = blocks B. subtilis Sfp PPTase activity; Potency, µM, for the others: max response, negative = inhibition, hits mostly inhibitors; Q9F4F7; 310,000 compounds, 3.5% hits; Biochemical Sfp PPTase activity, qHTS; AID 1490; active = well fitted inhibition curve with a large enough effect; inconclusive = small, poorly fitted or top-dose-only effect, or another doubt; inactive = no such curve, though single readings can be large or run the other way;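 note: the enzyme is Sfp with the accession as filed and its product quenches rhodamine fluorescence; potency is the fitted concentration of half-maximal effect; 0% = enzyme reaction without inhibitor and -100% = no enzyme wells; top concentration of the series not given in the record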
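Fluorescence-quenching assay: 15 nM Sfp-PPTase preincubated 15 min at room temperature with compound, then 5 uM rhodamine-CoA and 12.5 uM BHQ-2-labelled YbbR peptide added. Fluorescence (ex 525/em 598 nm) read at start and after 30 min; difference gives rate.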
Six1-Eya2 blk = blocks human Six1 binding to Eya2; Q15475+O00167; AlphaScreen GST-Six1/His-Eya2 binding, biochemical; stronger effect = lower value; control for the full effect not named in the record; activity change, % (test concentration not listed); 360,000 compounds, 0.56% hits; in the data active = activity change below about -65%; inconclusive = about -30% to -65%; inactive = above about -30%; note: % is set by controls: 0 for no effect and ±100 for the full control effect
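GST-Six1 + His-Eya2 (5X stock: 250/500 nM); Tris pH 8.0, 300 mM NaCl, 0.05% BSA, 0.02% Tween 20; GSH donor/Ni acceptor beads; 1 h 37 °C dark; AlphaScreen readout.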
PINK1 modulator = PINK1 expression modulation; 410,000 compounds, 0.2% hits; PINK1 immunofluorescence, high-content cytometry, 24 h; Potency, µM (titrated, usually from 76.6 µM), without a hit: at the highest dose activation (PINK1 increase), hits mostly activators; active = well fitted activation curve with a large enough effect; inconclusive = small, poorly fitted or top-dose-only effect; inactive = flat fitted curve, though single readings scatter; cell line not stated here;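 note: potency is the fitted concentration of half-maximal effect; % of control where 0% means no effect; nearly all actives have a fitted effect of over 65% in size; a mitochondrial uncoupler was the plate control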
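Fluorescence from anti-PINK1 antibody, together with nuclear and cell stains, was scanned on a laser-scanning cytometer. Before staining, stable-line cells were incubated 24 hours with compounds at 5 concentrations; primary antibody 12 h at 10 degrees C.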
TRPV1 potentiator = enhances activation of the human vanilloid receptor TRPV1; potentiation, % at 8.33 µM; AID 540277; TRPV1-expressing cells, Fluo-8 calcium influx, capsaicin EC20 potentiation; host cell line not named in the record; control for the full effect not named in the record; 320,000 compounds, 0.02% hits; active means potentiation above 80%; inconclusive means 30% to 80%; inactive means below 30%; note: 0% is about no effect
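Cells expressing TRPV1 were dye-loaded with Fluo-8 and read kinetically: 10 s baseline, 3 min after compound (agonist portion), then 2 min after EC20 capsaicin (allosteric enhancer portion). Calcium-bound dye fluorescence at 480/520 nm.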
Numbers without * were called inactive; ? = inconclusive; . = not tested or not shown; [ ] = remark or other dose. Random draw from the library. Share with any hit: about 3.7%.

SMILES | D2 ag | CtBP-E1A inh | D2 potentiator | Sfp inh | Six1-Eya2 blk | PINK1 modulator | TRPV1 potentiator
CSc1ccccc1NC(=O)c1cc(CC(C)C)on1 | -3.0 | 6 | -2 | ? | 14 | 6.7% | -32
CC(=O)c1cccc(-c2cnc3c(NC=O)cc(-c4ccc(C(=O)N5CCOCC5)cc4)cn23)c1 | 2.3 | -6 | 4 | . | 2 | -0.1% | .
Cc1ccc(NC2=C/C(=N/S(=O)(=O)c3cccs3)c3ccccc3C2=O)cc1 | 14 | -30 | 58* | -1% | ? | -1.9% | 10
Cn1c(SCC(=O)Nc2cccc(F)c2)nc2c([nH]c3ccccc32)c1=O | -0.6 | -2 | -1 | -12% | 2 | 2.0% | -8
O=C(NCCc1nc2ccccc2[nH]1)/C(=C/c1ccco1)NC(=O)c1ccccc1Br | -4.4 | -6 | -30 | ? | -6 | 2.7% | 3
Cc1ccc(CN2CCN(/N=C/c3sccc3C)CC2)c(C)c1 | 0.0 | ? | -36 | -15% | ? | ? | -13
CC1c2ccsc2CCN1S(=O)(=O)c1cccs1 (stereo unspecified) | -3.2 | . | -20 | 13% | 9 | 2.8% | -8
CCCCc1nnc(NC(=O)CSCc2cc(=O)n3ccsc3n2)s1 | -0.1 | 4 | -6 | 5% | 3 | -0.9% | -17
Oc1ccc(C[C@H]2CNC(=S)N2C[C@H]2CCCN2C[C@H](Cc2ccccc2)N2C[C@H](Cc3ccc(O)cc3)N(CCc3ccccc3)C2=S)cc1 | 6.4 | -11 | -2 | . | -13 | 1.0% | .
O=C(Nc1c(O)c2ccccc2[nH]c1=O)c1ccco1 | 0.8 | 9 | 3 | ? | 1 | 0.4% | 0
CCOc1ccccc1N(CC(=O)Nc1ccc2c(c1)OCO2)S(C)(=O)=O | -2.4 | -2 | -14 | -5% | -5 | -1.2% | -10
O=C(Cc1cccs1)N(c1ccc(F)cc1)C1(C(=O)NC2CCCCC2)CCCC1 | 5.6 | . | -7 | 9% | -1 | ? | -9

Entries listed so far that bear a hit mark in D2 potentiator:
Molecule	D2 ag	CtBP-E1A inh	D2 potentiator	Sfp inh	Six1-Eya2 blk	PINK1 modulator
Cc1ccc(NC2=C/C(=N/S(=O)(=O)c3cccs3)c3ccccc3C2=O)cc1	14	-30	58*	-1%	?	-1.9%

The list continues.
SMILES | D2 ag | CtBP-E1A inh | D2 potentiator | Sfp inh | Six1-Eya2 blk | PINK1 modulator | TRPV1 potentiator
O=C1CC2(CCN(C(=O)c3cccc(Br)c3)CC2)Oc2ccccc21 | 0.6 | -6 | -14 | . | -10 | 3.7% | 8
CC1c2[nH]c3ccccc3c2CCN1S(C)(=O)=O (stereo unspecified) | -2.3 | 1 | 10 | 11% | 0 | -1.0% | 1
COc1ccc2c(C)cc(SCC(=O)c3ccc4c(c3)OCO4)nc2c1 | -0.1 | 13 | 6 | 2% | 2 | 0.8%[38.3 µM] | -26
Nc1ccc2nc(SCC(=O)Nc3ccc(N4CCOCC4)c(Cl)c3)sc2c1 | 1.3 | 0 | 1 | 8% | -7 | 4.8% | 1
O=C(c1cccs1)N1CCN(Cc2ccncc2)CC1 | 14 | 2 | 3 | ? | 4 | 1.4% | -3
Cn1c(=O)c2c(nc3n2CC(COc2ccccc2)O3)n(C)c1=O (stereo unspecified) | 1.1 | . | -12 | 3% | -9 | 1.9% | -10
CC(C)CSc1nnc2c(n1)[nH]c1ccccc12 | -2.2 | 6 | -19 | 21% | -1 | 0.2%[38.3 µM] | -1
COc1ccccc1C(=O)Nc1ccc(N2CCN(Cc3ccccc3)CC2)cc1 | -0.5 | ? | -19 | 6% | ? | -0.3% | 9
Cc1ccc(-c2cc(C(F)F)n3ncc(C(=O)Nc4cn(C)nc4C)c3n2)cc1 | -2.8 | 7 | 0 | -5% | 2 | 0.9% | 4
O=C(COc1ccccc1O)Nc1ccccc1Cl | -3.6 | 4 | -14 | 12% | 0 | -0.6% | 13
COc1ccc(C2C(CN3CCOCC3)C(=O)N2c2ccccc2)cc1 (stereo unspecified) | -4.7 | -8 | -3 | 15% | 3 | -1.2% | 3
Cc1cc(N=CC2=C(O)CC(C)(C)CC2=O)no1 | -5.5 | -5 | -26 | 7% | -1 | 1.3% | -1
C[n+]1ccc(/C=N/Nc2nc(Cl)c(C#N)c(Cl)c2Cl)cc1 | -14 | -27 | -11 | 4% | -29 | 19% | -2
C/C(=C/C(=O)NCc1ccccc1)C(=O)O | -3.4 | 17 | -16 | 14% | 0 | 2.4% | 24
COc1ccc(-c2csc(NC(=O)c3c(C)noc3C)n2)cc1OC | 8.8 | -4 | 4 | . | -14 | 0.9% | .
Cc1cc(=O)oc2cc(OCC(=O)NCc3cccnc3)ccc12 | -1.8 | 0 | -6 | 21% | 1 | 0.1% | 15
CCOc1cc(/C=C\c2[nH]c(=O)[nH]c(=O)c2[N+](=O)[O-])ccc1OC(C)CC (stereo unspecified) | -4.6 | 8 | -16 | -3% | -2 | -2.6%[38.3 µM] | 13
Cc1ccccc1NC(=O)NC1(C(=O)N2CCN(C)CC2)CCCCC1 | 0.5 | 2 | 0 | 8% | 3 | 4.6% | 5
O=[N+]([O-])c1cccc(/C=N/NC2=NCCCCC2)c1 | -0.9 | 19 | -4 | 5% | 8 | 0.1% | -41
O=C(COC(=O)Cc1ccsc1)Nc1ccc(Cl)cn1 | -2.5 | -2 | -1 | . | -1 | 7.8% | -34
Cc1ccc(Nc2nc(N)c3ccccc3n2)cc1Cl | -2.3 | . | -26 | -25% | 12 | 11% | -3
Cc1nc2ccc(Cl)cc2[nH]1 | -2.1 | -17 | -2 | . | -2 | -1.9% | .
COc1cccc(C(=O)NCC(=O)N/N=C/c2cccs2)c1 | -4.0 | 2 | -22 | -3% | 3 | -1.2% | 4
COc1ccccc1OCC(=O)NCc1n[nH]c(=O)c2ccccc12 | 6.2 | -3 | 0 | . | 4 | -0.1% | 8
Cc1ncc([N+](=O)[O-])n1CC(=O)Nc1ccc(OC(F)(F)Cl)cc1 | -0.8 | 6 | -8 | 2% | 5 | -1.3% | -19
CSc1ccc(/C=C(/Sc2nnc(-c3ccccc3)o2)C(=O)O)cc1 | -3.6 | 5 | -6 | 6% | -1 | 12% | -1
COc1ccccc1CNC(=O)C(C)Sc1ccc(C)cc1 (stereo unspecified) | 0.0 | 8 | -3 | 29% | 14 | -0.2% | -9
Cc1nn(C)c(C(=O)NNC(=S)NCC(C)C)c1Cl | 0.0 | 3 | -11 | 33%[activator] | 4 | 3.5% | 9
CC12CCC(=O)N1C(C(=O)NCCc1ccc(F)cc1)CS2 (stereo unspecified) | 0.8 | 5 | 2 | . | 1 | -0.5% | .
CC(=O)c1cccc(NC(=O)CSc2nc3ccccc3c(=O)n2CCCN2CCOCC2)c1 | 6.2 | . | 1 | . | -4 | 0.9% | .
CC(=O)Nc1c(Cl)cnn(-c2ccccc2)c1=O | -6.1 | . | -2 | . | -3 | 1.5% | .
O=C1OC(c2ccccc2)=C/C1=C/N1CCCCC1 | -0.7 | -15 | -6 | ? | -8 | -1.5%[38.3 µM] | -3
Nc1nonc1C(=O)N/N=C/c1cc2c(cc1Br)OCO2 | -4.1 | 2 | -11 | -4% | 1 | 3.8% | 15
COc1cccc(C(=O)NCC(c2ccco2)N2CCOCC2)c1 (stereo unspecified) | -6.0 | 2 | -23 | . | -1 | 1.0% | 3
O=C(CSc1nnc(NC(=O)C2CC2)s1)Nc1ccccc1Cl | 0.8 | 29 | 5 | -25% | 7 | 3.1% | 5
COc1ccccc1CN(C)C[C@@H]1OCc2cnnn2CCCC(=O)N([C@H](C)CO)C[C@H]1C | -7.5 | 6 | -12 | . | 10 | 1.3% | .

2 entries picked at random from those above:
SMILES | D2 ag | CtBP-E1A inh | D2 potentiator | Sfp inh | Six1-Eya2 blk | PINK1 modulator | TRPV1 potentiator
COc1ccccc1CNC(=O)C(C)Sc1ccc(C)cc1 (stereo unspecified) | 0.0 | 8 | -3 | 29% | 14 | -0.2% | -9
Cc1nn(C)c(C(=O)NNC(=S)NCC(C)C)c1Cl | 0.0 | 3 | -11 | 33%[activator] | 4 | 3.5% | 9

The listing continues.
SMILES | D2 ag | CtBP-E1A inh | D2 potentiator | Sfp inh | Six1-Eya2 blk | PINK1 modulator | TRPV1 potentiator
CN(C(=O)COC(=O)CCc1c[nH]c2ccccc12)C(c1ccccc1)c1ccccc1 | 7.2 | -10 | -12 | 18% | -20 | 7.9% | 4
COc1cc(C2C(C#N)=C(N)N(N(C)C)C3=C2C(=O)CC(C)(C)C3)ccc1O (stereo unspecified) | -6.9 | 3 | -2 | 4% | 6 | -1.6% | -7
CCOC(=O)/C(=N\Nc1cc(Cl)ccc1Cl)N1CCN(CC)CC1 | -4.0 | 0 | -19 | -1% | -6 | 7.1% | -9
Cc1cc(C)nc(SC(C)C(=O)Nc2ccc(S(N)(=O)=O)cc2)n1 (stereo unspecified) | -3.9 | 2 | -8 | 23% | 0 | -0.7% | -1
Cc1cc(NC(=O)c2cc(-c3ccccc3C)nc3ccccc23)no1 | -1.2 | -3 | -13 | 1% | -6 | 4.5% | -5
COC(=O)[C@H](Cc1ccccc1)NC(=O)Cn1cnc2c(NCc3ccccc3)ncnc21 | -3.5 | -8 | . | . | -2 | -0.7% | .
CCCCc1cc(=O)oc2cc(C)cc(OC(C)C(=O)NCc3ccncc3)c12 (stereo unspecified) | -1.2 | 8 | -20 | 5% | -3 | -0.3% | 16
COc1cc([N+](=O)[O-])ccc1NC(=O)CCCOc1cc(C)ccc1C | 0.3 | -1 | -22 | -3% | -6 | -0.1% | 12
CCCCCn1c(CN2CCN(C)CC2)nc2c1c(=O)n(C)c(=O)n2C | -5.1 | 1 | -12 | -4% | 4 | -1.6% | .
COc1cccc(CN(C)C(=O)c2ccc(Oc3ccccc3)cc2)c1OC | -3.5 | 10 | -9 | -6% | -3 | 0.8% | 2
O=C(O)c1ccc(N2C(=O)CC(N3CCN(c4ccc(Cl)cc4)CC3)C2=O)cc1 (stereo unspecified) | -3.8 | -3 | -1 | 6% | 6 | 1.8% | 4
CCN(CC)CCCn1c(SCC(=O)Nc2cccc(F)c2)nnc1-c1ccoc1C | -3.8 | -9 | -15 | -4% | 7 | 3.3% | 6
COc1cc(OC)cc(C(=O)NNC(=O)CCC(=O)c2cccs2)c1 | -0.3 | 2 | 0 | 9% | 1 | -1.0% | 6
CNC(=O)COc1ccc(-c2nn(C)c(=O)c3ccccc23)cc1 | 1.8 | -2 | -11 | 16% | 1 | . | -3

Compound activity: PubChem BioAssay, National Center for Advancing Translational Sciences (NCATS)
